Bioassay records from PubChem BioAssay.
MgrA-DNA mod: alters Staphylococcus aureus MgrA binding to DNA; 84,000 tested, 0.13% active; AID 602314; fluorescence polarization; inhibition, %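 (about 10 µg/mL by stock and volumes)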;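 active means above 50% in either of two replicates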;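 further: 0% = protein plus DNA without compound and 100% = DNA alone without protein; higher means less MgrA bound to DNA so lower polarization; one replicate is shown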
Sa helicase inh: S. aureus DNA helicase inhibition; purified S. aureus helicase, fluorescence unwinding assay; about half of the hits fall short of the stated cut; inhibition, %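 (tested at about 80 µM)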; 120,000 tested, 0.05% active;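 active means both duplicates at 50% or more, or one of them with a favoured structure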;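 further: 0% = mean of negative control wells and 100% = mean of positive control wells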
* marks the source's active call; other numbers are inactive results; i = inactive; . = no result given; & = joins results of further samples. This is a subset; count on the stated rates, not on these rows.

SMILES | MgrA-DNA mod | Sa helicase inh
CCCC(c1nnnn1CS(=O)(=O)c1ccc(C)cc1)N1CCC(C(N)=O)CC1 (stereo unspecified) | 1.9 | -1
CCOC(=O)c1c(C=O)oc2c(C)cc(OC(=O)c3cccc(C)c3)c(Br)c12 | -1.1 | .
NC(=O)C1CCN(Cc2nc(-c3cccs3)no2)CC1 | -1.5 | .
O=C(OCc1ccccc1F)C1COc2ccccc2O1 (stereo unspecified) | . | -1
NC(=O)CSc1ccccn1 | . | 17
O=C(O)CSC1=CC(=O)N(c2cccc(Cl)c2)C1=O | 7.0 | 6
CC1(C)CC(NC(=O)c2ccccc2)CC(C)(C)N1 | . | -6
O=C(Cn1cnc2ccccc21)c1ccc(Cl)cc1 | 0.1 | -5
COC(=O)c1ccc(-c2ccccc2F)cc1 | 0.1 | .
O=C(COC(=O)C1CC1)NCc1ccc(Cl)cc1 | 1.6 | -21

Part of the list above in another layout:
CCOC(=O)c1c(C=O)oc2c(C)cc(OC(=O)c3cccc(C)c3)c(Br)c12
  MgrA-DNA mod: -1.1
  Sa helicase inh: .

CC1(C)CC(NC(=O)c2ccccc2)CC(C)(C)N1
  MgrA-DNA mod: .
  Sa helicase inh: -6

O=C(Cn1cnc2ccccc21)c1ccc(Cl)cc1
  MgrA-DNA mod: 0.1
  Sa helicase inh: -5

(continued)
SMILES | MgrA-DNA mod | Sa helicase inh
COC(=O)c1cc(-c2cccnc2)nc2ccccc12 | -0.8 | 10
CCOC(=O)C1CCN(C(=S)Nc2cccc(C)c2)CC1 | -3.0 | .
CN(C1=CC2=CC(=C(C#N)C#N)CCC2CC1)C1CCCCC1 (stereo unspecified) | . | i
CCCCNC(=O)Cn1nc(-c2ccccc2)ccc1=O | . | 7
COc1ccccc1C(=O)Nc1nnc(SCc2cccc(F)c2)s1 | . | -23
CC1CSC(N(C(=O)c2cnccn2)c2ccc(Cl)cc2)=N1 (stereo unspecified) | . | 2
COc1ccccc1CNC(=O)/C=C/C(=O)O | -3.5 | .
CCOC(=O)NC(=S)Nc1ccc(OC)cc1 | -0.2 | 8
CC1=NN(c2ccc(S(N)(=O)=O)cc2)C(=O)/C1=C\c1ccco1 | . | -21
CCOC(=O)Cc1csc(-c2ncc(C(F)(F)F)cc2Cl)n1 | -0.7 | .
c1coc(C(CNc2ncnc3sc4c(c23)CCC4)N2CCCCC2)c1 (stereo unspecified) | . | -18
CC(NC(=O)CSc1ccccc1)c1ccc(S(N)(=O)=O)cc1 (stereo unspecified) | . | -8
CCSC1=C(C#N)C(c2ccc(Cl)cc2)C(C(=O)OC(C)(C)C)=C(C)N1 (stereo unspecified) | -2.2 | 19
CCn1nc(-c2cccs2)cc1C(=O)N(C)C | -0.7 | .
O=C(CCCCl)Nc1nc(-c2cccs2)cs1 | -1.6 | 3
CCOC(=O)CNCc1ccc(Cl)cc1 | . | 12
COc1ccc2c(COC(=O)Cn3cnnn3)cc(=O)oc2c1 | . | -13
CN1C(C(=O)NCC2CCCO2)=CC(c2ccco2)=NS1(=O)=O (stereo unspecified) | . | -16
O=C(Cn1c(=O)n2nc(-c3ccccc3)nc2c2ccccc21)c1ccc(Br)cc1 | 0.3 | 11
COC(=O)c1ccc(-c2nc(-c3ccccc3)cs2)cc1 | -0.3 | .
CCCN1CCN(C(=O)c2ccc(-n3c(-c4ccccc4)nc4cccnc43)cc2)CC1 | . | -20
CCCn1c(=O)c2ccccc2n2c(Sc3nnnn3-c3ccccc3)nnc12 | . | -1
OCCNC12CC3CC(CC(C3)C1)C2 | -2.5 | 4
COC(=O)c1ccc(OC(=O)COC(=O)CN2C(=O)c3ccccc3C2=O)cc1 | -0.9 | 1
C=CCN(CC=C)Cc1c(C)[nH]c2ccccc2c1=O | 1.6 | -11
CCOc1ccc(C(N)=S)cc1OC | . | 10
c1ccc(CSc2nnc3n(CCOc4ccccc4)c4ccccc4n23)cc1 | 0.1 | 18
CCOC(=O)c1c[nH]c(=S)n1C | . | -10
CC(=O)NC1=NC(=O)CS1 | . | -16&-1
O=C1NC(=O)C(C(=S)Nc2ccccc2)C(=O)N1 | . | 4
OCc1nc2ccccc2n1CCc1ccccc1 | . | -17
COC(=O)C1CCN(C(=O)c2ccc(OC)cc2)CC1 | -0.9 | .
O=C(COC(=O)Cc1ccccc1F)NC(c1ccccc1)c1ccccc1 | -4.4 | -16
Cc1ccc(NNC(=S)NCCCN2CCOCC2)c(C)c1 | . | 5
CC1CN(/C=C/C(=O)C(F)(F)F)CC(C)O1 (stereo unspecified) | . | 1
O=C(c1cc(C2CC2)nn1-c1ccccc1)N(Cc1ccco1)Cc1cccs1 | . | 3
COc1nc(N(C)C)nc(N2CC(=O)N(c3ccccc3)C2=N)n1 | -0.8 | .
CCCc1nn2c(=O)cc(COc3ccc(NS(=O)(=O)c4ccc(Cl)cc4)cc3)nc2s1 | . | 13
OC[C@H]1NC[C@@H](O)[C@@H](O)[C@@H]1O | 3.5 | .
O=C(Nc1ccccc1)Nc1ccc(C(F)(F)F)cn1 | . | -40
CCOc1cc(C(=O)Nc2ccc(OC)nc2)ccc1OCC(=O)N1CCCCC1 | . | 12
CC(=O)Nc1ccc(S(=O)(=O)N(CCO)Cc2ccccc2)cc1 | . | 14
Cc1cc(C)nc(NS(=O)(=O)c2ccc(NC(=O)COc3ccccc3)cc2)n1 | -1.3 | .
CCCCNC(=O)c1cc(-c2ccc(F)cc2)[nH]c1C | . | -16
O=C(CC(=O)c1ccc2c(c1)OCCO2)c1ccccc1 | 1.0 | 17
CSC1=NC2(CCN(C(=O)NCc3ccccc3)CC2)N=C1c1ccccc1 | . | 0
CC(C)c1cc(C(=O)Nc2c(Cl)cccc2Cl)no1 | . | -19
CSc1nc2nc(C)c(CCC(=O)OCC(=O)Nc3ccc(F)cc3)c(C)n2n1 | . | -8
O=C(CSc1ccc(Cl)cc1)c1ccc[nH]1 | . | 11
O=C(OCc1cc(=O)n2cc(Br)ccc2n1)C1CC(=O)N(CCc2ccccc2)C1 (stereo unspecified) | . | -17
Next entries follow:
SMILES | MgrA-DNA mod | Sa helicase inh
N#C/C(=C(/O)CCN1C(=O)c2ccccc2C1=O)c1nc2ccccc2s1 | . | -12
Cc1ccc(-n2nc3c(c2NC(=O)CCC2CCCC2)CSC3)cc1 | . | -13
O=C(O)C12CC3CC(CC(C3)C1)C2 | -2.9 | 0
COC(=O)c1c2c(n3ccccc13)C(=O)c1ccccc1C2=O | . | -65
Cc1cc(NC(=O)CCN2C(=O)/C(=C3\SC(=S)N(CCC(=O)Nc4cc(C)on4)C3=O)SC2=S)no1 | . | 5
CCSc1nnc(SCC(=O)N2CC(=O)Nc3ccccc32)s1 | . | -3
Cc1ccc(NCc2nnc(SCC(=O)N(Cc3ccccc3)C(C)(C)C)o2)c(C)c1 | 17 | 9
N#Cc1ccccc1NC(=S)NCc1ccccc1 | . | 2
COc1cc2c(cc1NC(=S)Nc1ccc3c(c1)OCO3)oc1ccccc12 | -1.1 | 10
CCOc1ccc(N=C2SC(C(=O)Nc3ccc(C(=O)O)cc3)CC(=O)N2Cc2ccccc2)cc1 (stereo unspecified) | -8.4 | .
O=C1NC(=S)NC(=O)C1=C1C=C(c2ccccc2)N(CCN2CCOCC2)C2=C1CCCC2 | . | 5
CC(C)(CSc1ccccn1)NS(=O)(=O)c1ccc(Cl)cc1 | . | 17
CC(C)C(=O)Nc1ccc(-c2nc3ccccc3c(=O)o2)cc1 | . | 12
FC(F)(F)c1cccc(Nc2ncnc3c2nnn3Cc2ccccc2)c1 | 0.0 | .
COCc1cc(C)[nH]c(=O)c1C(=O)NC12CC3CC(CC(C3)C1)C2 | 3.8 | 8
CCOC(=O)c1csnn1 | 3.8 | .
NC(=O)c1ccc(Oc2ccc(C(F)(F)F)cc2[N+](=O)[O-])cc1 | 2.0 | .
O=C1CSC(C23CC4CC(CC(C4)C2)C3)N1 (stereo unspecified) | 0.1 | -6
CC(C)c1nnc(NC(=O)/C=C/c2ccccc2)s1 | . | -6
CC(C)NC(=O)c1ccc(CN(Cc2ccccc2)C(=O)Nc2ccc(F)cc2)o1 | . | 7
CCOC(=O)C(C)Oc1cc(OC(C)C(=O)OCC)c2c(=O)cc(-c3ccccc3)oc2c1 (stereo unspecified) | -2.1 | .
Cc1cc(C(=O)CN2c3ccccc3CC2C)c(C)n1-c1c(C)n(C)n(-c2ccccc2)c1=O (stereo unspecified) | . | -8
CCN1CCN(CCNC(=O)c2ccc(CS(=O)c3ccc(Cl)cc3)o2)CC1 (stereo unspecified) | . | 16
CCOC(=O)c1cnn(-c2ccccc2)c1N | -2.5 | 9
CCc1ccc2[nH]c(=O)c(CN(CCN(C)C)C(=O)Nc3ccccc3Cl)cc2c1 | -0.5 | 12
N#CSCC(=O)n1c2c(c3ccccc31)CCCC2 | . | -11
FC(F)(F)c1cccc(-c2nnc(SCc3ccccc3)o2)n1 | -1.8 | .
O=C(Nc1ccccc1)Nc1ccc(-n2ccc(C(F)(F)F)n2)cc1 | -0.7 | .
O=C(COC(=O)[C@@H]1CCCN1S(=O)(=O)c1ccc(Cl)cc1)NCc1ccc2c(c1)OCO2 | . | -8
Cc1cc(Br)ccc1NC(=O)c1ccccn1 | 0.9 | 6
CN(C(=O)C1CCCC1)C1CCS(=O)(=O)C1 (stereo unspecified) | . | 11
O=C(CCC(=O)N1CCC(c2ccccc2)=N1)N1CCN(S(=O)(=O)/C=C/c2ccccc2)CC1 | . | 5
CC(=O)N1CCC(N(CCC(C)C)C(=O)Nc2ccccc2)CC1 | 2.0 | 10
CC(C)(C)c1ccc(C(=O)OCC(=O)Nc2ccc(C#N)cc2)cc1 | -1.5 | -11
NC(=O)c1cc(S(=O)(=O)NCC2CCN(Cc3cccc(F)c3)CC2)cs1 | . | 10
CC(Sc1nc(-c2ccccc2)cc(C(F)(F)F)n1)C(=O)N1CCCCC1 (stereo unspecified) | -0.7 | 8
CCC(Sc1nc(-c2ccc(OC)cc2)nc2c1c(=O)n(C)c(=O)n2C)C(=O)OC (stereo unspecified) | . | 4
N#Cc1nnn(-c2cc(C(F)(F)F)cc(C(F)(F)F)c2)c1N | 0.3 | .
C1=CC2c3cc(-c4ccccc4)ccc3NC(c3ccncc3)C2C1 (stereo unspecified) | . | -5
CCCCNC(=O)C1CC(=O)N(C2CCCC2)C1 (stereo unspecified) | . | 0
O=C(CN1C(=O)S/C(=C\c2ccco2)C1=O)CN1C(=O)S/C(=C\c2ccco2)C1=O | 3.7 | 2
COc1ccccc1NC(C)c1cc(Cl)ccc1O (stereo unspecified) | -1.2 | 5
CC(C)N(Cc1cccs1)C(=O)[C@H]1[C@@H]2C[C@@H]3[C@H]1C(=O)O[C@@H]3C2 | 2.5 | 3
COc1ccc2c(c1)C1C=CCC1C(c1ccc(Cl)cc1Cl)N2 (stereo unspecified) | -1.8 | .
Cc1ccc(C(=O)Nc2cc(=O)n(C)c(=O)n2C)cc1 | . | 5
Cc1nc([N+](=O)[O-])cn1CC/C(N)=N/O | -0.6 | .
COc1cc(/C=C2\C(=O)NC(=O)N(c3ccc(Cl)cc3)C2=O)cc(OC)c1O | 8.8 | .
c1cc2c(cc1C1=NCCC1)OCCO2 | . | 34
Cc1cc2cc(CNC(=O)C3CC3)ccc2[nH]1 | . | 17
COc1ccc(-c2cc(SCCN3CCOCC3)c(C#N)c(-c3ccccc3)n2)cc1 | -1.0 | 6

Full records, quoted from the list. Screens in order: MgrA-DNA mod, Sa helicase inh
Cc1ccc(C(=O)Nc2cc(=O)n(C)c(=O)n2C)cc1 as listed: ., 5
COc1ccc2c(c1)C1C=CCC1C(c1ccc(Cl)cc1Cl)N2 (stereo unspecified) as listed: -1.8, .
c1cc2c(cc1C1=NCCC1)OCCO2 as listed: ., 34
CC(C)N(Cc1cccs1)C(=O)[C@H]1[C@@H]2C[C@@H]3[C@H]1C(=O)O[C@@H]3C2 as listed: 2.5, 3

The listing picks up, starting 2 compounds before the break.
SMILES | MgrA-DNA mod | Sa helicase inh
Cc1cc2cc(CNC(=O)C3CC3)ccc2[nH]1 | . | 17
COc1ccc(-c2cc(SCCN3CCOCC3)c(C#N)c(-c3ccccc3)n2)cc1 | -1.0 | 6
Cc1cc(NC(=O)NCc2sccc2C)c(C(F)(F)F)o1 | . | 6
Cc1onc(-c2ccccc2)c1C1=N/C(=C\c2coc3ccc(Cl)cc3c2=O)C(=O)O1 | 0.6 | .
Fc1ccccc1N1CCN(CCCNc2nc(=S)[nH]c3ccccc23)CC1 | 0.2 | 6
N#CC1(NC2CCCCC2)CCCCC1 | 2.3 | .
CCOC(=O)C1=C(CC)Nc2ccccc2N=C1NC(=O)c1nc2nccc(C)n2n1 | . | -5
Nc1nc(CN2CCC(Cc3ccccc3)CC2)nc(Nc2ccccc2)n1 | -0.7 | 6
O=C(Nc1ncn[nH]1)c1ccc(S(=O)(=O)N2CCOCC2)cc1 | . | -7
Cc1cccc(NC(=O)CC2CCC2)c1 | 1.7 | 18
O=C1OCCC1OC(=O)C1(c2ccc(F)cc2)CCCC1 (stereo unspecified) | . | 8
O=C(O)c1cccc2c1-c1ccc(I)cc1C2 | 1.1 | .
C/C(=C\c1ccc(C(=O)O)cc1)c1ccc2c(c1)C(C)(C)CCC2(C)C | -1.7 | .
CN(C1CCCCC1)C1CCN(C(=S)Nc2cc(F)cc(F)c2)CC1 | 0.9 | 4
N#CC(C#N)=NNc1ccccc1C(N)=O | 7.1 | 21
Cc1nc(Cc2ccc([N+](=O)[O-])cc2)no1 | 0.3 | .
O=c1c2nnn(Cc3ccccc3)c2ncn1Cc1ccc(F)cc1 | . | -16
O=C(c1ccccc1NS(=O)(=O)c1ccc(F)cc1)N1CCCC1 | -2.5 | -14
